Mtb hypoxia inh: reduces hypoxia-regulated biosensor signal in M. tuberculosis; M. tuberculosis hypoxia-regulated fluorescent reporter, fluorescence; fluorescence inhibition, % (concentration not given with the values); 0.1% of 300,000 active;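 active means 35 to 45% if threefold the growth effect, above 45% if 1.5-fold the growth effect; inactive means the rest, general growth blockers included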;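 further: wells of about 50 µL received 100 nL stock; 0% = vehicle wells and 100% = reference inhibitor wells; whole bacteria with a GFP reporter of the hypoxia response; strong numbers were not always called active; many hits fall short of the cut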
PrP UTR inh: suppresses PrP 5' UTR mRNA reporter expression; cell-based PrP 5' UTR mRNA reporter, plate reader; 0.35% of 340,000 active; AID 488862; inhibition, % (no concentration beside the values);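 active means every replicate at 50% or more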;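 further: 0 = median of the neutral control wells; tested in H4 reporter cells; numbers are from one replicate; inactives centre near -14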
Autofluor counter: counter-screen for toxin protease inhibitors: compound fluorescence. AID 624483. fluorescence intensity (no concentration beside the values). 3.1% of 360,000 active. compound autofluorescence counterscreen, microsphere flow cytometry; stronger effect = higher value;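 active means at least 3 SD above the mean of all compounds, about 16000 in these data; inconclusive means too few beads counted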;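 further: 100 nL of 1 mM stock went into each well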
Sa ugtP lethal: kills S. aureus RN4220 lacking UgtP; AID 1259309; growth inhibition, % (no concentration beside the values); S. aureus RN4220 ugtP deletion, OD600 growth, 16 h; some inactives read as strong as hits; 0.54% of 330,000 active;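 active means z-score under -3 and OD600 up to 0.15 on both plates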;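 further: plate controls were untreated wells for no effect and antibiotic for full effect; wells of about 80 µL received 100 nL stock; the first replicate is given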
BJeLR viability: kills HRASV12-expressing BJeLR cells; BJeLR (HRASV12) viability, CellTiter-Glo ATP luminescence, 48 h; reference of the scale not given here; inhibition, % (concentration not given with the values); 0.17% of 300,000 active; AID 1554;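 active means replicate mean above 50%; inconclusive means above 50% but judged a plate artefact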;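 further: 50 nL library stock added to about 25 µL; numbers are from one replicate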
RN4220 kill: S. aureus RN4220 growth inhibition; OD600, 16 h; inhibition, % (no concentration beside the values); 0.33% of 330,000 active;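 active means z-score of -3 or lower and OD600 up to 0.18 on both plates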;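 further: plate controls were untreated cells for no effect and reference antibiotic for full effect; stock transfer was 100 nL into about 80 µL; one replicate is shown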
Mtb hypoxia inh growth: further read-out of Mtb hypoxia inh, marked with its call; growth inhibition, %; measured here: M. tuberculosis growth (absorbance);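 0% = vehicle and 100% = reference antibiotic; read after six days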
The depositor's hits bear a star; ? = inconclusive; / = no result given.

SMILES	Mtb hypoxia inh	Mtb hypoxia inh growth	PrP UTR inh	Autofluor counter	Sa ugtP lethal	BJeLR viability	RN4220 kill
CC(C)(C)NC(=O)CN(C(=O)CCC(=O)Nc1nccs1)c1ccc(F)c(Cl)c1	-3	-8	-15	3110	1	-11	4.2
CCCCSc1nnc(-c2ccc(NC(=O)CCc3ccccc3)cc2)n1C	4	11	-19	20381*	4	-1	5.2
COc1cc(C2C(C#N)=C(N)Oc3cc(C)n(CCc4ccccc4)c(=O)c32)cc2c1OCO2 (configuration not stated)	/	/	-4	2999	13	0	5.1
CCOc1ccc(NC(=O)c2cccc3c2C(=O)N(CC2CCCO2)C3)cc1 (configuration not stated)	4	13	-22	6082	-9	5	4.3
CNC(=S)N1N=C(c2ccccc2)CC1c1ccc(OC)c(OC)c1 (configuration not stated)	3	1	-19	2660	6	-12	2.6
NC(=O)Nc1ccc(C(=O)OCC(=O)NCc2ccc3c(c2)OCO3)cc1	12	8	-1	2888	4	/	7.8
COc1cc2c(cc1OC)C(C(=O)NCc1ccco1)C1c3ccccc3CCN1C2=O (configuration not stated)	12	2	-31	4456	1	-9	5.5
CCN(CC)CCCNS(=O)(=O)c1ccc(OC)cc1	-4	-3	-9	17061*	1	1	-3.0
CC(=O)N1CCN(C(=O)C(Cc2ccccc2)NC(=O)c2ccccc2)CC1 (configuration not stated)	-2	-5	-12	8284	5	/	2.6
CC(=O)c1c(C(C)=O)c(C)n(Cc2ccccc2)c1C	2	8	-17	9912	-3	-11	7.0
Nc1ccc2c(c1Cl)C(=O)c1ccc(N)c(Cl)c1C2=O	/	/	-70	4409	/	25	/
COCCN(Cc1cc2cc(C)ccc2[nH]c1=O)S(=O)(=O)c1ccc(Cl)cc1	-5	3	-16	5825	0	-4	2.3
CCOC(=O)N1CCN(c2ncc(C(F)(F)F)cc2Cl)CC1	7	3	-3	3581	4	-1	8.8
Cc1ccc(CSc2nnc(CCNC(=O)OC(C)(C)C)o2)cc1	-2	2	-10	3861	0	7	2.9
CN(C)C(=O)C(Sc1ccc(S(=O)(=O)N2CCCC2)cn1)c1ccccc1 (configuration not stated)	-1	7	-11	3804	2	/	1.6
CCCCOP(=O)(c1ccc(N(C)C)cc1)C(O)c1ccncc1 (configuration not stated)	10	5	-11	3994	1	4	0.0
COc1ccc(CN2CCN(C(=O)CC(C)C)CC2)cc1OC	-8	-5	-13	3165	-1	-3	0.4
O=C(NCc1ccccc1)c1ccc(NC2=NC3CS(=O)(=O)CC3S2)cc1 (configuration not stated)	3	1	-16	3782	3	1	1.0
CC(=O)Nc1ccccc1OC(=O)N(C)C	10	7	-5	15505	11	13	5.6
Cc1cc(Nc2nc3ccccc3nc2Cl)n(-c2ccc([N+](=O)[O-])cc2)n1	3	-1	-8	8028	1	-3	1.5
CC(=O)Nc1ccc(N2C(=O)CC(Sc3nc(C)cc(C)n3)C2=O)cc1 (configuration not stated)	11	6	0	3225	7	-11	5.1
N#CC1=C(N)Oc2n[nH]c(-c3ccncc3)c2C1c1ccsc1 (configuration not stated)	-8	-8	-6	8305	-5	-4	2.6
COc1ccc(NC(=O)NCc2cccnc2)c(OC)c1	1	-6	2	/	9	-7	5.3
COc1ccc(CNC(=O)C(c2ccc(C)o2)N(C(=O)c2snc(C(N)=O)c2N)c2ccccc2OC)cc1 (configuration not stated)	1	12	-16	3526	1	-5	1.4
COc1ccc(C2OCC3(CO2)SC(=O)NC3=O)cc1OC (configuration not stated)	11	3	-6	2506	0	1	4.5
N=c1n(CCN2CCCCC2)c2ccccc2n1CC(=O)c1cccs1	19	12	6	3742	-2	8	3.9
CCc1nnc(NC(=O)c2cccc(OC)c2)s1	/	/	-31	2412	-4	1	0.4
Cn1c(CNC(=O)c2ccco2)nnc1SCC(=O)Nc1ccc(Br)cc1F	1	9	-25	2580	5	-26	-0.6
C=CCc1cccc(C=Nn2c(C)nnc2C)c1O	4	1	/	/	6	/	-0.5
CCC(C)NC(=O)CN(c1ccc(OC)cc1)S(=O)(=O)c1ccc(NC(C)=O)cc1 (configuration not stated)	13	6	-13	3187	7	-5	3.2

One compound at a time, as listed above:
`CCC(C)NC(=O)CN(c1ccc(OC)cc1)S(=O)(=O)c1ccc(NC(C)=O)cc1` (configuration not stated) is listed with Mtb hypoxia inh = 13; Mtb hypoxia inh growth = 6; PrP UTR inh = -13; Autofluor counter = 3187; Sa ugtP lethal = 7; BJeLR viability = -5; RN4220 kill = 3.2
`CCc1nnc(NC(=O)c2cccc(OC)c2)s1` is listed with Mtb hypoxia inh = /; Mtb hypoxia inh growth = /; PrP UTR inh = -31; Autofluor counter = 2412; Sa ugtP lethal = -4; BJeLR viability = 1; RN4220 kill = 0.4

Following part:
SMILES	Mtb hypoxia inh	Mtb hypoxia inh growth	PrP UTR inh	Autofluor counter	Sa ugtP lethal	BJeLR viability	RN4220 kill
COc1cc(OC)cc(-c2c(C#Cc3ccsc3)c3cc(-c4cc(OC)c(OC)c(OC)c4)ccc3n2C)c1	-5	5	16	2768	2	/	12
COc1ccc(N2CCN(S(=O)(=O)c3ccc(C(=O)NCc4ccco4)cc3)CC2)cc1	-11	-11	-17	8061	0	3	0.5
Cc1ccc(S(=O)(=O)N2CCN(C(=O)COC(=O)c3c(C)cc(C)cc3C)CC2)c(C)c1	4	-1	-3	5663	-7	2	-3.9
COc1ccc(/C=N/NC(=O)OC(C)(C)C)cc1OC	/	/	-11	2483	/	-13	/
Cc1ccc(CNC(=O)C2CC(c3cccc([N+](=O)[O-])c3)=NO2)cc1 (configuration not stated)	6	4	-9	3644	-3	-4	-1.3
COc1ccccc1C(=O)n1nc(-c2ccco2)nc1SC	-4	9	-31	4329	5	0	8.2
Cc1ccc(NC2=NCCCCC2)cc1	1	2	-15	4024	-5	-3	5.1
CCOc1ccc(CCNC(=O)c2sc3nc4n(c(=O)c3c2C)CCC4)cc1OCC	-7	7	-15	5537	4	8	2.1
CCCCOc1ccc(C2(C)NC(=O)NC2=O)cc1 (configuration not stated)	/	/	-21	3829	/	-8	/
Cc1cc(/C=C(\C#N)c2nc3ccccc3[nH]2)c(C)n1C	/	/	-126	2731	/	-1	/
CC1(C)CC(=O)C2=C(C1)N(Cc1ccco1)C(=O)C2(NC(=O)c1ccc(Cl)cc1Cl)C(F)(F)F (configuration not stated)	3	2	-14	10574	-5	-18	0.3
COc1ccc(OC)c(NC(=O)c2cc(S(=O)(=O)N3CCCCC3)c[nH]2)c1	7	4	4	4259	7	-5	3.5
Cc1cc(C)nc(/N=c2/ssnc2Cl)c1	/	/	-56	2703	/	-2	/
CCOC(=O)CCNc1n[nH]c(=O)[nH]c1=O	8	12	-7	3235	0	2	-6.9
O=[N+]([O-])c1ccccc1C=NN1CCN(c2ccccc2)CC1	6	4	/	/	6	/	6.5
O=C(NCc1ccccc1)c1c[nH]c2ccc(F)cc2c1=O	-1	4	-15	8232	-7	6	6.4
O=C(OCC(=O)N1CCOCC1)c1ccc2ccccc2c1O	8	-14	-98	3448	11	/	7.7
C=CCSc1nnc(NC(=O)c2ccc(Cl)nc2)s1	/	/	-25	4524	2	3	8.8
CN(C)CCNC(=O)c1cc(Sc2ccc(F)cc2)nc2ccccc12	1	-5	/	/	2	-1	2.8
CCc1cc(C(=O)OCC(=O)N2CCC(c3ccccc3)=N2)sc1C	3	3	-61	6421	7	-4	13
O=c1c(Cl)c(N/N=C/c2ccc(Br)cc2)cnn1-c1ccccc1	/	/	1	3404	/	1	/
COC(=O)[C@]1(CC(C)C)NC(c2ccc(SC3CCCCC3)c(OC)c2)C2C(=O)N(C)C(=O)C21 (some centres not stated)	11	5	/	/	8	/	4.2
COc1ccc(CCCC(=O)NCC(=O)NN=Cc2cc(Cl)ccc2OC)cc1	4	1	/	/	0	/	0.2
Cn1c(=O)n(C)c2cc(/C=C3/SC(=O)N(CC(=O)N4CCOCC4)C3=O)ccc21	/	/	-6	2359	/	11	/
CC(C)Cc1nc2sc3c(=O)[nH]cnc3c2c2c1CCCC2	-2	7	-16	3611	10	1	8.4
CCc1n[n+](CC(=O)c2ccccc2)c(N)s1	9	-3	-18	4125	-6	/	3.5
CCOC(=O)c1ccc(NC(=O)Nn2cnnc2)cc1	4	-16	-36	6519	-3	0	-0.5
O=C(c1cc(=O)c2ccccc2o1)N1CCN(c2cccc(Cl)c2)CC1	8	-6	-34	3945	-2	2	-9.6
CC(=O)NC1(C(F)(F)F)C(=O)N(Cc2ccccc2)C2=C1C(=O)CC(C)(C)C2 (configuration not stated)	16	3	-21	10263	-5	-8	6.3
CCCCCN1C(=O)Cn2c(nc3ccccc3c2=O)C1C (configuration not stated)	20	15	-13	2438	7	-1	5.6

In the list so far, 4 have two or more sulfur atoms:
SMILES	Mtb hypoxia inh	Mtb hypoxia inh growth	PrP UTR inh	Autofluor counter	Sa ugtP lethal	BJeLR viability	RN4220 kill
CN(C)C(=O)C(Sc1ccc(S(=O)(=O)N2CCCC2)cn1)c1ccccc1 (configuration not stated)	-1	7	-11	3804	2	/	1.6
O=C(NCc1ccccc1)c1ccc(NC2=NC3CS(=O)(=O)CC3S2)cc1 (configuration not stated)	3	1	-16	3782	3	1	1.0
Cc1cc(C)nc(/N=c2/ssnc2Cl)c1	/	/	-56	2703	/	-2	/
C=CCSc1nnc(NC(=O)c2ccc(Cl)nc2)s1	/	/	-25	4524	2	3	8.8

Next compounds
SMILES	Mtb hypoxia inh	Mtb hypoxia inh growth	PrP UTR inh	Autofluor counter	Sa ugtP lethal	BJeLR viability	RN4220 kill
CCOC(=O)Cn1c(O)c(N=NC(=O)CNC(=O)Cc2ccccc2)c2ccccc21	1	15	5	5336	1	7	0.5
CC(C)(C)c1nnc2sc(SC/C(O)=C(\C#N)c3nc4ccccc4[nH]3)nn2c1=O	/	/	0	10419	/	-2	/
CCCCOc1ccc(C(O)(CC)CCN2CCOCC2)cc1 (configuration not stated)	10	12	-38	9419	-15	2	5.5
COc1ccc(CC(=O)c2ccc(OC)c(OC)c2C)cc1OC	7	4	-23	2445	3	9	1.2
CNC(=S)N/N=C/c1ccc(OCC(=O)Nc2c(C)cc(C)cc2C)c(OC)c1	/	/	-21	1940	/	5	/
c1ccc(CNc2ncnc3c2oc2ccccc23)nc1	8	7	-5	22122*	-1	-7	1.6
COc1ccc(Cn2c(-c3ccc(OC)cc3)n[nH]c2=S)cc1	2	-5	-14	4026	2	5	2.1
COc1cc(S(=O)(=O)Nc2ccccc2C)ccc1Cl	/	/	4	2864	-11	4	12
O=C(Nc1nonc1NC(=O)c1cccs1)c1cccs1	2	5	-8	3979	16	15	42
COCCNC(=S)N/N=C/c1ccc2c(c1)OCCO2	/	/	-16	4403	/	-16	/
Cc1c(C(=O)Nc2cccc(S(=O)(=O)N3CCOCC3)c2)oc2ccc(Br)cc12	-17	5	-3	4362	-19	/	-6.8
O=C(CCS(=O)(=O)c1ccc(Br)cc1)N1CCN(c2ccccc2)CC1	/	/	-6	2621	-1	/	1.4
CCN(C(=O)CN1CCC(C(=O)OC)CC1)c1c(N)n(Cc2ccccc2)c(=O)[nH]c1=O	16	8	-32	3953	2	/	7.8
Cc1ccccc1OCC1Cc2c(nc(N)c(C#N)c2N)O1 (configuration not stated)	4	12	-40	3338	-6	/	-3.2
CN(CC(=O)Nc1ccc(F)c(F)c1F)C(=O)/C=C/c1ccc(Cl)cc1	8	4	-21	2322	-2	5	9.8
CCOC(=O)c1cc(C)sc1NC(=O)C1CCC1	3	3	-2	20217*	4	-4	5.5
CCOc1ccccc1CNC(=O)Cn1c(=O)oc2ccccc21	5	1	-33	6302	-9	5	1.8
Clc1nnc(N2CCCCC2)c2ccccc12	/	/	-22	2259	-4	7	3.0
O=C(Nc1ccccc1C(=O)N1CCN(Cc2ccccc2)CC1)c1ccccc1	8	-2	-6	7089	10	5	2.2
COc1ccc(C(=O)c2c(C)oc3ccc(O)cc23)c(OC)c1	4	4	-1	4177	-2	-4	5.3
Cc1ccccc1OCCSc1nnc(C)n1-c1ccccc1	6	5	-31	8487	-2	7	4.2
Cc1ccc(C)c(N2CCN(C(=O)CSc3ccsc3[N+](=O)[O-])CC2)c1	9	-7	5	9895	3	-25	3.7
CCCCn1c(N)c(N(CC)C(=O)CN2C(=O)NC(C)(c3ccccc3)C2=O)c(=O)[nH]c1=O (configuration not stated)	8	-1	-34	7007	6	5	0.4
O=C(CCn1cnnn1)Nc1ccccc1F	-4	1	-1	4385	0	-5	-0.1
CCOc1ccc(CCNC(=O)COC(=O)c2ccc(S(=O)(=O)N3CCCC3)cc2)cc1OCC	-14	-1	3	?	-1	-4	1.6
CC(=NNc1nc2ccccc2[nH]1)c1cccs1	-10	14	/	/	-19	/	-0.6
